CDC25B CDK2 inh: human CDC25B-CDK2/CyclinA binding inhibition | z-score (concentration not given with the values) | HTRF CDC25B-CDK2/CyclinA binding, anti-His/anti-Flag; active compounds read high | actives 0.72% (n = 94,000);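 further: score is relative to mean and SD of negative controls; strong numbers were not always called active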
HIV TAR-Tat: HIV-1 TAR-Tat binding disruption; z-score (concentration not given with the values); AID 1259389; actives 0.6% (n = 100,000); HIV-1 TAR RNA, Tat peptide displacement FRET; active compounds read high;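 further: score is relative to mean and SD of negative controls; some compounds called inactive have numbers as strong as hits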
Starred values were filed as active, the others as inactive; . = no result given.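 How the source made its calls: active means z-score from 3 up in half or more of its runs; inactive means the rest.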 Rows were taken by chance (roughly 0.87% active in at least one column).

SMILES | CDC25B CDK2 inh | HIV TAR-Tat
Cn1cc(S(=O)(=O)N2CCOCC2)cc1C(=O)N1CCN(c2ccc(Cl)cc2)CC1 | . | 1.4
O=C(Nc1noc2ccccc12)c1cc(Br)ccc1Cl | -4.2 | 0.91
Cc1nn(-c2ccc(N3CCCC3)nn2)c(C)c1CCC(=O)N1CCN(c2ccccn2)CC1 | . | 0.3
CCSc1nnc(NC(=O)c2cnc(SC)nc2CC)s1 | . | 0.36
COc1c(C)cnc(CO)c1C | -0.86 | .
O=C(O)CSC(=S)c1ccccc1 | -1.7 | .
CCCC12CN3CC(C)(CN(C1)C3c1cc(Br)ccc1OCC)C2=O (configuration not stated) | -0.87 | 0.51
CC1=CC(C)C(CNCCN2CCNCC2)C(C)C1 (configuration not stated) | -1.4 | .
C=Cc1ccc(CN2C(=O)N(c3cc(C)ccc3C)C3CS(=O)(=O)CC32)cc1 (configuration not stated) | -1.1 | 0.02
CCS(=O)(=O)Nc1ccc2c(c1)N(S(=O)(=O)CC)CCC2 | . | 1.4
COc1ccc(-c2onc(C)c2C)cc1S(=O)(=O)N(C)Cc1ccco1 | . | 1.2
Cc1cc(NNC(=O)c2ccccc2Cl)nc2c1c(C)nn2C | -1.5 | .
O=C1NC(c2ccc(-c3ccc(F)cc3)o2)C(C(=O)c2ccc(Cl)cc2)C(O)(C(F)(F)F)N1 (configuration not stated) | -1 | .
Cc1ccc2c(n1)sc1c(=O)n(-c3ccc(F)cc3)nnc12 | -0.37 | 1.8
O=C(CSc1nc2[nH]ncc2c(=O)n1-c1cccc(Cl)c1)Nc1ccccc1Cl | . | 1.4
Brc1ccccc1C1Nc2cccc3cccc(c23)N1 | -1.1 | 5.7*
Oc1ccccc1-c1cc(-c2ccccc2)n[nH]1 | -1.2 | -0.64
CCOC(=O)c1c(NC(=O)C2CC2)sc(C(=O)Nc2ccccc2)c1C | 1 | .
CCC(=O)N1c2ccc(S(=O)(=O)NCCN3CCN(CC)CC3)cc2CC1C (configuration not stated) | . | 0.43
CC1Sc2ccc(S(=O)(=O)N3CCc4ccccc43)cc2NC1=O (configuration not stated) | . | 1.8
c1ccc(C2Oc3ccccc3C3CC(c4cccs4)=NN32)nc1 (configuration not stated) | -1.7 | -1.6
COC1=CC(=O)C(C)=CC1=O | -1.1 | .
Cc1cc(C)n(CCc2nc3c4ccccc4nc(SCC(=O)NCc4ccco4)n3n2)n1 | -1.1 | 2.5
O=C(Cn1cnc(S(=O)(=O)N2CCCCC2)c1)NCCC1=CCCCC1 | . | -1.3
O=c1c2c(n(Cc3ccccc3)c3cc(Cl)ccc13)OCC2 | 1 | .
CC(C)(C)SC(=O)c1cccnc1SCCS(=O)(=O)c1ccccc1 | 2.5 | .
COc1cc(NC(=O)COCc2cc(-c3cccs3)on2)cc(OC)c1 | . | 0.92
c1ccc(N2CCN(Cc3noc4ccccc34)CC2)nc1 | . | 1.7
CCCCNc1nc(NCc2ccc(C)cc2)c2cnn(C)c2n1 | . | 2.2
COc1ccc(-c2nc(NC3CCCC3)c3ccccc3n2)cc1 | . | -2
Cc1nc(-c2cnccn2)sc1C(=O)Nc1cc(-c2ccc(Cl)cc2)[nH]n1 | -3.7 | .
Cc1cc(C)nc(SCc2ccccc2)n1 | -0.92 | -0.37
COc1cccc(Nc2nc(-c3ccc(OC)c(OC)c3)no2)c1 | . | 2.2
O=C(Cn1c(=O)oc2cc(S(=O)(=O)N3CCOCC3)ccc21)NC1CCCCCC1 | -0.8 | .
COc1ccc(C2CC(=O)C3=C(C2)Nc2ccccc2NC3c2ccc3c(c2)OCO3)cc1OC (configuration not stated) | -1 | 1.1
Cc1ccc(-c2nc(C)c(CCNS(=O)(=O)c3ccc(Cl)cc3)s2)cc1 | . | 0.22
O=C(O)CSc1nc2ccccc2o1 | -2 | 2.4
Cc1cc(=O)n2nc(N3CCC(C(=O)N4CCN(C)CC4)CC3)sc2n1 | -0.37 | 0.69
Cc1cc(-c2ccc(S(=O)(=O)NCc3ccccc3C)s2)on1 | . | 0.38
CCOC(=O)C1=C(C)Nc2nnnn2C1c1ccccc1 (configuration not stated) | 1.1 | -0.76
CC(=O)c1sc(Nc2ccc(N(C)C)cc2)nc1C | -8 | .
O=C1N(c2ccc(Cl)cc2)C(c2ccccc2F)N2CCCN12 (configuration not stated) | -4.3 | -0.45
CCOc1ccccc1Oc1nnc(C)c2ccccc12 | . | 1.1
CCOC(=O)c1nsc(/C(C)=N/Nc2ccccc2)c1N | 0.67 | .
COc1ccc2c(c1)NC(c1ccc(OC)c(OC)c1)=NC(c1ccc(F)cc1)=N2 | -0.87 | -0.08
COc1ccc(Nc2nc(NCCN3CCc4ccccc4C3)nc3c2cnn3C)cc1 | . | 0.94
O=C(Nc1c(C(=O)N2CCCC2)oc2ccccc12)C1CC1 | . | 0.21
CC1CCN(C(=O)CN2C(=O)CSc3ccc(S(=O)(=O)N4CCCC4)cc32)CC1 | . | -0.78
CCN1CCN(C(=O)c2sc3ncccc3c2-n2cccc2)CC1 | . | 0.52
Cc1cc(C)n2nc(CC(=O)NC3CCCCCC3)nc2n1 | -0.69 | .
CCOc1ccc(C(=O)c2cn(Cc3ccc(F)cc3)c3cc4c(cc3c2=O)OCCO4)cc1 | -0.66 | -0.14
O=C(O)c1ccc(Cn2c(=O)c3cccn3c3cccnc32)cc1 | 0.39 | 0.87
CCCCN(C)CCNS(=O)(=O)c1cc(Br)cc2c1N(C(C)=O)CC2 | 7.4* | .
COc1ccc(-c2cc(C(=O)O)c3c(-c4ccc(Cl)cc4)[nH]nc3n2)cc1OC | . | 2.4
CCN1C2=C(C(=O)CCC2)C(c2ccc(O)c(Br)c2)C2=C1CCCC2=O | -0.56 | 0.92
COCCCNC(=O)CCS(=O)(=O)c1cc2c(cc1Cl)NC(=O)CO2 | . | 1.4
CCCCCOC(=O)C1=C(C)Nc2nnnn2C1c1ccccc1OCC (configuration not stated) | 2.4 | 0.75
CCn1nc(C)c(CNS(=O)(=O)CC)c1C | . | -0.27
Cc1cc(Nc2ccc(Cl)cc2)n2cnnc2n1 | 1.5 | 1.6
O=C(CN1C(=O)CCc2cc(Br)ccc21)NCc1ccco1 | . | 0.41

Remaining list, next part
SMILES | CDC25B CDK2 inh | HIV TAR-Tat
CC1(C)CC(=O)C2=C(C1)c1c(ccc3ncccc13)NC2c1ccc2c(c1)OCO2 (configuration not stated) | -1.1 | 0.21
O=C1CCc2cc(S(=O)(=O)NC(Cc3ccccc3)C(=O)N3CCCC3)ccc2N1 (configuration not stated) | -1.9 | .
O=C(Nc1ccc(C(F)(F)F)cn1)C1CCN(c2nccc(C(F)(F)F)n2)CC1 | -0.35 | .
COc1ccccc1N1CC(O)=C(c2nc3ccccc3[nH]2)C1=N | -1.9 | 0.43
COCC(=O)Nc1c(C(=O)N2CCN(c3ncccn3)CC2)oc2ccccc12 | . | 0.82
CN(C)CCn1c2c(c(SCC(=O)Nc3ccc4c(c3)OCO4)nc1=O)CCC2 | . | 1.9
CS(=O)(=O)c1ncc(Cl)c(C(=O)Nc2ccccc2Cl)n1 | -0.96 | 1.4
CCCCOc1ccc(C2C(C#N)=C(N)OC3=C2C(=O)CCC3)cc1 (configuration not stated) | -0.13 | .
CCO/N=C\c1nn(S(C)(=O)=O)cc1Br | -0.68 | .
COc1ccc(-c2cn(-c3ccc(F)cc3)c(=O)[nH]2)cc1OC | -3.2 | 0.64
CCCN1CCN(c2nc(Nc3cccc(Cl)c3)c3cnn(C)c3n2)CC1 | . | 0.82
Cc1cc(=O)n2[nH]c(NCc3cc(F)cc(F)c3)nc2n1 | -2.3 | 4.4
O=C(OCc1cc(=O)n2nc(-c3cccs3)sc2n1)c1ccc(Cl)cc1 | . | 0.08
O=C1c2cccnc2C(=O)N1Cc1ccc(S(=O)(=O)NCc2ccc(Cl)cc2)s1 | . | 0.01
COc1ccc(NC(=O)c2cnn3c(C(F)(F)F)cc(-c4ccco4)nc23)cc1OC | 4.8 | 1.7
COc1nc2cc(C)ccc2cc1-c1noc(C)n1 | -1.4 | -0.18
Cn1c(=O)c2c(SCC(=O)NC3CCCCC3)nc(C3CC3)nc2n(C)c1=O | . | 0.29
O=C(COC(=O)c1ccc2nc3c4ccccc4c4ccccc4c3nc2c1)c1cccc([N+](=O)[O-])c1 | -2.3 | .
COCc1cc(N2CCCCC2)nc(-c2csc(C)n2)n1 | -1.4 | .
CC1CCc2c(C(=O)NCCC3=CCCCC3)csc2C1 (configuration not stated) | -0.4 | 0.98

Compound profiles, as listed above. Screens in order: CDC25B CDK2 inh, HIV TAR-Tat
`CS(=O)(=O)c1ncc(Cl)c(C(=O)Nc2ccccc2Cl)n1` as listed: -0.96, 1.4
`CC1CCc2c(C(=O)NCCC3=CCCCC3)csc2C1` (configuration not stated) as listed: -0.4, 0.98

(continued)
SMILES | CDC25B CDK2 inh | HIV TAR-Tat
CC(O)C12c3ccccc3C(c3ccccc31)C1C(=O)N(c3cccc4ccccc34)C(=O)C12 (configuration not stated) | -7.1 | .
Cc1cc(C)cc(OCCNC(=O)/C=C/c2ccccc2)c1 | 2.2 | .
OB(O)c1ccc(C2CC2)cc1 | -2.1 | .
CC(C)Cn1cc(NC(=O)Nc2ccc(F)cc2)c2ccccc2c1=O | . | 1.4
CCc1nc(SCc2ccc(Br)cc2)n[nH]1 | -1.8 | -0.05
COCCn1c(-c2ccccc2F)n[nH]c1=S | -1.8 | .
CCCc1cc(=O)n2nc(N(C)CC(=O)NCCCN3CCN(C)CC3)sc2n1 | -0.87 | -0.1
CCOC(=O)c1sc2ncnc(OCc3ccc(F)c(F)c3)c2c1C | . | 0.51
N/C(=N\OC(=O)Nc1ccc(OC(F)(F)F)cc1)c1cc(Cl)c(N)c(Cl)c1 | -2.6 | .
O=C(Nc1ccc(Br)cc1)C(Cl)Cl | -1.5 | .
Cc1ccc2oc3c(c(=O)c2c1)C(c1cccc(O)c1)N(c1ccccn1)C3=O (configuration not stated) | 0.33 | -0.01
NC(=O)c1c(NC(=O)CCCSc2ccccc2)sc2c1CCC2 | . | 0.17
CC(C)n1cnc2nc(COc3ccc(NC(=O)COc4ccccc4)cc3)cc(=O)n21 | 0.72 | 1.1
Cc1ccccc1OCc1nnc2c3cnn(Cc4ccccc4)c3ncn12 | -2.1 | 0.1
CCCCCCCn1c(N2CCN(C)CC2)nc2c1c(=O)[nH]c(=O)n2C | 1.1 | .
Cc1ccc(S(=O)(=O)N(CCS(=O)(=O)N2CCNCC2)Cc2ccccc2Cl)c(C)c1 | . | 1.7
CCCCNc1oc(/C=C/c2ccc(F)cc2)nc1C#N | -1.6 | 0.67
O=c1c(SCc2ccccc2Cl)nccn1-c1ccccc1 | . | 1.5
CCOC(=O)c1c[nH]c2c(C)ccc(Cl)c2c1=O | -1.9 | 0.73
Cc1ccc(-c2nc(SCc3cc(=O)n4nc(C5CC5)sc4n3)n3[nH]c(=O)cc3n2)cc1 | . | -0.16

Seven of the compounds above, with tabs:
Molecule	CDC25B CDK2 inh	HIV TAR-Tat
O=C(Nc1ccc(Br)cc1)C(Cl)Cl	-1.5	.
Cc1ccc2oc3c(c(=O)c2c1)C(c1cccc(O)c1)N(c1ccccn1)C3=O (configuration not stated)	0.33	-0.01
COCCn1c(-c2ccccc2F)n[nH]c1=S	-1.8	.
Cc1ccc(S(=O)(=O)N(CCS(=O)(=O)N2CCNCC2)Cc2ccccc2Cl)c(C)c1	.	1.7
CCCCNc1oc(/C=C/c2ccc(F)cc2)nc1C#N	-1.6	0.67
CCc1nc(SCc2ccc(Br)cc2)n[nH]1	-1.8	-0.05
CCOC(=O)c1sc2ncnc(OCc3ccc(F)c(F)c3)c2c1C	.	0.51

Sorted by length of the SMILES (smallest number first): part of the list above
SMILES | CDC25B CDK2 inh | HIV TAR-Tat
CCc1nc(SCc2ccc(Br)cc2)n[nH]1 | -1.8 | -0.05
O=c1c(SCc2ccccc2Cl)nccn1-c1ccccc1 | . | 1.5
CC(C)n1cnc2nc(COc3ccc(NC(=O)COc4ccccc4)cc3)cc(=O)n21 | 0.72 | 1.1

Later entries.
SMILES | CDC25B CDK2 inh | HIV TAR-Tat
Cc1noc2ncn(CC(=O)NC3CC3)c(=O)c12 | . | 0.74
COc1ccc(Cl)cc1NC(=O)CSc1nc2ncccc2o1 | . | 0.18
FC(F)(F)c1cc(-c2ccc(Cl)cc2)nc(NCCc2ccccc2)n1 | -2 | 0.59
c1ccc(Cc2nn3c(Cn4cnc5ccccc54)nnc3s2)cc1 | 0.62 | 2.5
O=C1CCc2cc(S(=O)(=O)NC(C(=O)NCc3ccccc3)c3ccccc3)ccc2N1 (configuration not stated) | 0.32 | .
CCN(CCNS(=O)(=O)c1ccc2c(c1)CC(C)N2C(C)=O)c1ccccc1 (configuration not stated) | . | 0.97
Cc1onc(-c2ccccc2)c1C(=O)Nc1cc(C(F)(F)F)ccc1N1CCCC1 | -2.2 | .
CC1=C(c2ccccc2)S(=O)(=O)NC1=NCCC(C)C | -0.77 | -1.1
COC(=O)C(=O)c1c(-c2ccc(Br)cc2)[nH]c2ccccc12 | -0.02 | 1.1
COc1ccc2[nH]c3c(=O)n(CCCCC(=O)N(C)C4CCCCC4)c(=S)[nH]c3c2c1 | -1.1 | .
Cc1cc(=O)c2c(ccc3c[nH][nH]c32)n1 | -2.1 | .
COc1ccc(OCCS(=O)(=O)c2nc3ccccc3[nH]2)cc1 | 0.71 | 0.45
CC1CCc2c(sc(NC(=O)CCC(=O)O)c2C(=O)Nc2ccc(Cl)cc2)C1 (configuration not stated) | -5.4 | .
Cc1cc(-c2ccc(S(=O)(=O)NCc3ccc(C)o3)s2)on1 | . | -0.73
CCN(c1cccc(C)c1)c1ncnc2nc[nH]c12 | -0.46 | .
CCc1nn2c(=O)cc(CSc3ccc(OC)cc3)nc2s1 | -1.4 | 2.1
Cc1nc(-n2cccc2)sc1C(=O)NCCC1=CCCCC1 | -1.1 | 0.66
COc1ccc(Nc2cc(N3CCOCC3)c3noc4c3c2C(=O)c2ccccc2-4)cc1 | 1.3 | -6.7
CC(=O)Nc1c2n(c3ccccc13)CC(C)(C(=O)NC1CCCC1)N(Cc1cccs1)C2=O (configuration not stated) | . | 2.4
O=C(O)/C=C1\OC(=O)c2ccccc21 | -1 | .
